gsp antagonist: antagonizes gsp, the McCune-Albright syndrome mutation. gsp-mutant cells, cAMP HTRF, 30 min; control for the full effect not named in the record. Potency, µM (top dose mostly 76.9 µM), inactives show top-dose activity change, negative = inhibition, most hits filed as inhibitors. hit rate 0.4% among 340,000; active = falling curve of any shape with a large fitted effect; inconclusive = falling curve, mostly with a smaller effect; inactive = flat or rising curve; cell line not stated here;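 note: intracellular cAMP measured with PDE inhibitor Ro 20-1724 present during compound exposure; potency is the fitted concentration of half-maximal effect; % is set by controls: 0 for no effect and ±100 for the full control effect; nearly all actives have a fitted effect of over 65% in size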
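Measurement of cellular cAMP by homogeneous time-resolved fluorescence following a 30 min compound exposure at 37C. The PDE inhibitor […] was present throughout; the assay buffer was DPBS with 0.05% BSA and 0.005% Tween 20.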
TRPML1 inh: blocks the human TRPML1 channel; hit rate 0.02% among 390,000; TRPML1-inducible cells, Ca2+ dye fluorescence, FDSS; hits give low values; inhibition of EC80 agonist-evoked calcium signal; activity change, negative = inhibition, % (no concentration beside the values); in the data active means activity change below about -50%; inconclusive means about -30% to -50%; inactive means above about -30%;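 note: stimulus is agonist 54-4 at its EC80 concentration; % is set by controls: 0 for no effect and ±100 for the full control effect; compound concentration not given in the record; the text of the record puts the active cut at -80%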
Target sequence (Q9GZU1 whole entry, looked up): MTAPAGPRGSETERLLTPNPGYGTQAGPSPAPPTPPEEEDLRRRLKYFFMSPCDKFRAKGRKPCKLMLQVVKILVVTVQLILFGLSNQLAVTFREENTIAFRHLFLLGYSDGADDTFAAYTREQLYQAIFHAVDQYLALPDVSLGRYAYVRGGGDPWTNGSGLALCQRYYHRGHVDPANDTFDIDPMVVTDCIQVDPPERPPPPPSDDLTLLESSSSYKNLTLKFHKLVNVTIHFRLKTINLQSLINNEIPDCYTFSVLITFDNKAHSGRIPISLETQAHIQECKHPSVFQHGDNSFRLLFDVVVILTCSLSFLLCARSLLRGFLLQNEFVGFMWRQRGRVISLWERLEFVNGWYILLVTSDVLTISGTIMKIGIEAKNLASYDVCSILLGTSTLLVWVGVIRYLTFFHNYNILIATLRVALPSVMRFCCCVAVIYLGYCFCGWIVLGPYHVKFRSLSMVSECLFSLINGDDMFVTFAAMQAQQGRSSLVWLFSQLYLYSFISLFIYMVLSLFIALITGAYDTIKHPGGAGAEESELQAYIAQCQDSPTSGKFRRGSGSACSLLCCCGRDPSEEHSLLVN
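TRPML1-DL cells, Tet-induced overnight (~16 h, 37 °C) at 1,500 cells/well, were loaded with Ca8 no-wash dye plus quencher for 45-90 min at room temperature. Compounds were pinned during FDSS kinetic reading; agonist 54-4 at EC80 (4 uM final) then added.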
gsp ag: gsp mutant agonism; gsp mutant cells, cAMP HTRF, 30 min; control for the full effect not named in the record; Potency, µM (titrated, usually from 76.9 µM), for inactives: at the highest dose activation (cAMP increase), usual class: activators; hit rate 0.13% among 340,000; AID 624287; active = well fitted activation curve with a large enough effect; inconclusive = small, poorly fitted or top-dose-only effect, or another doubt; inactive = no such curve, though single readings can be large or run the other way; cell line not stated here;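 note: phosphodiesterase inhibitor Ro 20-1724 added with compounds to block cAMP breakdown; potency is the fitted concentration of half-maximal effect; nearly all actives have a fitted effect of over 60% in size; about a fifth of the inactives were tested at one dose only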
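Cells stably selected in G418 were plated at 2000/well, grown 16-24 hr, then given compounds in DMSO with the PDE inhibitor […] (300 uM solution added) for 30 min at 37C; cAMP was read by HTRF.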
Menin-MLL FL inh: inhibitors of human menin-MLL interaction, wild-type MLL peptide | Fluorescence polarization, fluorescein-MLL peptide displacement from menin | FP activity change, % at 61.4 µM | 290,000 tested, under 10 active; inconclusive = falling polarisation curve, or a change in total fluorescence; inactive = total fluorescence flat and polarisation flat or rising; no compound was filed as active; the % refers to the polarisation; negative = inhibition;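 note: % of control where 0% means no effect; inhibitors lower the polarisation; unlabelled MLL peptide was the positive control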
ClpP mod: qHTS Assay for Activators of ClpP; purified B. subtilis ClpP, FRET peptide cleavage, 20 min; Potency, µM (titrated, usually from 57.5 µM), for inactives: at the highest dose activity change, negative = active; hit rate 1.9% among 340,000; active = well fitted falling curve with a large enough effect; inconclusive = small, poorly fitted or top-dose-only effect; inactive = no such curve, though single readings can be large or run the other way; note: potency is the fitted concentration of half-maximal effect; the source files actives as falling curves though it sought activators and does not explain the sign; nearly all actives have a fitted effect of over 65% in size; many hits overshoot -100%
Target sequence (P80244 whole entry, looked up): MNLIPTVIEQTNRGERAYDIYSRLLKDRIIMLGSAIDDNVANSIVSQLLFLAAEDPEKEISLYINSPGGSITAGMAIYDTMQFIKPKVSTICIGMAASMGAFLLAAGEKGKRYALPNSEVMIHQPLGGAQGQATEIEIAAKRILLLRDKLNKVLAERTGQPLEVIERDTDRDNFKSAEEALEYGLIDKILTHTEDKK
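FRET quenching reversal measured ClpP activation: 10 microg/mL B. subtilis ClpP at pH 8 with the FRET-FV decapeptide, read at 430 nm after 320 nm excitation. The 20-min minus 0-min signal was scaled between DMSO/no-enzyme wells and ADEP (5.8 microM final).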
TRPML1 ag: activates the human TRPML1 channel. AID 624414. Q9GZU1. hit rate 0.12% among 410,000. TRPML1-expressing cells, Ca2+ dye fluorescence, FDSS; host cell line not named in the record; reference of the full effect not given here. activation, % (concentration not given with the values); in the data active = activation above about 50%; inconclusive = about 30% to 50%; inactive = below about 30%; note: 0% is about no effect; the text of the record puts the active cut at 80%
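Kinetic FDSS Ca2+ read in Tet-induced TRPML1-DL cells (ABD Ca8 dye plus quencher, 45-90 min RT loading): baseline, then compound, then 110 s agonist window; EC80 agonist 54-4 at 4uM final added afterwards for a 110 s antagonist window.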
Active calls of the source: *; & = joins results of further samples; [ ] = remark or other dose.

COc1ccc2c(c1)c(CC(=O)OCC(N)=O)c(C)n2C(=O)c1ccc(Cl)cc1 was read as gsp antagonist -34%, TRPML1 inh -10, gsp ag -19%, Menin-MLL FL inh 0.4, ClpP mod -0.5% and TRPML1 ag -0.3.
Screening CN(C)CCNc1oc(COc2ccc(Cl)cc2)nc1C#N returned gsp antagonist 14%, TRPML1 inh 19, gsp ag inconclusive, Menin-MLL FL inh 2.4, ClpP mod 0.8% and TRPML1 ag 1.1.
`Cc1csc(NC(=O)c2ccco2)c1C(=O)c1ccccc1` gave gsp antagonist -4%, TRPML1 inh 2, gsp ag 5%[15.4 µM], Menin-MLL FL inh 3.6 and TRPML1 ag 2.8.
For CC(C)N1CCN(Cc2ccc(OCc3ccccc3)cc2)CC1CCO (stereo not drawn) the results were gsp antagonist 8%, TRPML1 inh 21, gsp ag 18%, Menin-MLL FL inh 0.6, ClpP mod 0.5% and TRPML1 ag -0.2.
`O=c1ccc(Oc2nc(N3CCOCC3)nc(N3CCOCC3)n2)n[nH]1` gave gsp antagonist 5%, TRPML1 inh 30, gsp ag -14%, Menin-MLL FL inh 5.6, ClpP mod -0.1% and TRPML1 ag 0.9.
CC(/C=N\NC(=O)CN1CCN(Cc2ccccc2)CC1)=C\c1ccco1 was read as gsp antagonist 3%, TRPML1 inh 9, gsp ag 9%, Menin-MLL FL inh -0.4, ClpP mod 0.2% and TRPML1 ag 2.7.
OC(c1cc(C(F)(F)F)nc2c(C(F)(F)F)cccc12)C1CCCCN1 (stereo not drawn) was read as gsp antagonist -21%, TRPML1 inh 0, Menin-MLL FL inh -2.0, ClpP mod 1.4% and TRPML1 ag 2.2.
O=C(OCc1nnc(-c2ccccc2)o1)c1ccc2c(c1)C(=O)N(CCc1ccccc1)C2=O was read as gsp antagonist -4%, TRPML1 inh 7, gsp ag 21%, Menin-MLL FL inh 3.2, ClpP mod 0.1% and TRPML1 ag -0.4.
O=C(Oc1ccc([N+](=O)[O-])cc1)c1cccnc1 was read as gsp antagonist 5%, TRPML1 inh 1, gsp ag 0%, ClpP mod -2.2% and TRPML1 ag 0.2.
Cc1cccc(NC(=S)N2N=CCC2c2ccccc2)c1 (stereo not drawn) was read as gsp antagonist -12%, TRPML1 inh 30, gsp ag -5%, Menin-MLL FL inh 0.0, ClpP mod -1.5% and TRPML1 ag 8.8.
`COc1ccccc1/C=C/C=N/NC(=O)CN1CCN(S(=O)(=O)c2ccc(C)cc2)CC1` gave gsp antagonist -14%, TRPML1 inh -24, gsp ag -9%, Menin-MLL FL inh 0.3, ClpP mod -7.4% and TRPML1 ag 0.7.
O=C(NCc1cccnc1)c1ccc(=O)oc1 was read as gsp antagonist -4%, TRPML1 inh -30, gsp ag 0%, Menin-MLL FL inh 1.1, ClpP mod 4.4% and TRPML1 ag -0.1.
COC(=O)C[C@H]1C[C@H]2c3cc(NC(=O)NC4CCCC4)ccc3O[C@H]2[C@@H](CO)O1 was read as TRPML1 inh 3, gsp ag -3%, ClpP mod 0.4% and TRPML1 ag -0.2.
Screening CCOc1cc(Cl)c(S(=O)(=O)NCCCN2CCOCC2)cc1Cl returned gsp antagonist 6%, TRPML1 inh 64, gsp ag 2%, Menin-MLL FL inh 2.2 and TRPML1 ag 0.9.
Screening O=C1Cc2cc(S(=O)(=O)N3CCN(c4cccc(Cl)c4)CC3)ccc2N1 returned gsp antagonist 4%, TRPML1 inh 4&-3, gsp ag -31%, Menin-MLL FL inh 14, ClpP mod -2.0%&1.3% and TRPML1 ag -0.5&0.0.
`CCc1ccc(CN(C)C(=O)c2cc(COc3ccc(-n4cncn4)cc3)on2)cc1` gave gsp antagonist -28%, TRPML1 inh 11, gsp ag -38%[inhibitor], Menin-MLL FL inh -1.0, ClpP mod -0.7% and TRPML1 ag -0.8.
Screening COc1ccc(/C=C/C(=O)OCC(=O)c2ccc3c(c2)NC(=O)CO3)c(OC)c1 returned gsp antagonist -17%, gsp ag 16%, Menin-MLL FL inh 4.9 and ClpP mod -15%.
`Cc1cc(C)c[n+](-c2nc3ccccc3nc2C(=C=[N-])C#N)c1` gave gsp antagonist -6%&-5%, TRPML1 inh -10&-6, gsp ag inconclusive, Menin-MLL FL inh inconclusive, ClpP mod -8.1%&-0.7% and TRPML1 ag 0.2&-0.8.
For CC(=O)Nc1ccc(S(=O)(=O)NCC(=O)OCC(=O)NCCc2ccccc2)cc1 the results were TRPML1 inh 5, gsp ag -150%[inhibitor], ClpP mod -3.1% and TRPML1 ag 0.0.
Screening COc1ccc(CCN2CC(C(=O)OCC(=O)N(C)Cc3ccccc3)CC2=O)cc1OC (stereo not drawn) returned gsp antagonist 2%, TRPML1 inh 22, gsp ag 54%, ClpP mod -1.6% and TRPML1 ag 2.8.

Molecules from the list above that contain a furan ring, fused or not, in the order listed:
`Cc1csc(NC(=O)c2ccco2)c1C(=O)c1ccccc1` gave gsp antagonist -4%, TRPML1 inh 2, gsp ag 5%[15.4 µM], Menin-MLL FL inh 3.6 and TRPML1 ag 2.8.
CC(/C=N\NC(=O)CN1CCN(Cc2ccccc2)CC1)=C\c1ccco1 was read as gsp antagonist 3%, TRPML1 inh 9, gsp ag 9%, Menin-MLL FL inh -0.4, ClpP mod 0.2% and TRPML1 ag 2.7.

Next section:
For CN(C)S(=O)(=O)c1ccc(C(=O)Nc2ccccc2C(=O)NCCCN2CCOCC2)cc1 the results were gsp antagonist 1%, TRPML1 inh -1, gsp ag 10%, ClpP mod -1.6% and TRPML1 ag 4.6.
CCOc1ccc(NC(=O)c2sc3nc4n(c(=O)c3c2C)CCC4)cc1 was read as gsp antagonist -24%, TRPML1 inh 10&11, gsp ag inconclusive, Menin-MLL FL inh 3.9, ClpP mod 0.3%&-0.2% and TRPML1 ag -0.9&1.1.
`O=C1c2cc(Cl)ccc2-c2c(O)cc(Cl)cc21` gave gsp antagonist inconclusive, TRPML1 inh -15, gsp ag inconclusive and TRPML1 ag 1.4.
Screening CCOc1ccc(CNC(=O)Cc2ccc(NC(=O)N3CCSc4ncccc43)cc2)cc1 returned TRPML1 inh 0, ClpP mod -17% and TRPML1 ag 0.1.
Screening CC(=O)c1cn(CC(=O)Nc2ccccc2F)c2ccccc12 returned gsp antagonist -13%, TRPML1 inh 7, gsp ag 29%, Menin-MLL FL inh -1.3 and TRPML1 ag 0.2.
Nc1ncnc2c1nc(Br)n2[C@@H]1O[C@@H]2COP(=O)(O)O[C@H]2[C@H]1O was read as gsp antagonist 26%, TRPML1 inh 16, ClpP mod -4.9% and TRPML1 ag 0.4.
For O=C(c1cc2ccccc2o1)c1nc2c(n1O)CCCCC2 the results were gsp antagonist 6%, TRPML1 inh 7, gsp ag -60%[inhibitor], Menin-MLL FL inh 0.5, ClpP mod -0.1% and TRPML1 ag 1.0.
CN(c1ccccc1)S(=O)(=O)c1cccc(NC(=O)COc2cccc([N+](=O)[O-])c2)c1 was read as gsp antagonist inconclusive, TRPML1 inh 3, gsp ag -5%, ClpP mod -2.7% and TRPML1 ag 2.5.
Screening COC(=O)c1cccc2nc3c(C(C)O)cccc3nc12 (stereo not drawn) returned gsp antagonist -9%, Menin-MLL FL inh 5.7 and ClpP mod 1.0%.
Screening COCC1CCCN(C(=O)c2ccc3oc(Cc4ccc(Cl)cc4)nc3c2)C1 (stereo not drawn) returned gsp antagonist -5%, TRPML1 inh 7, gsp ag 27%, ClpP mod -0.7% and TRPML1 ag -0.8.
For CCCCSc1nc(C)nc2c1c(=O)n(C)c(=O)n2C the results were gsp antagonist -7%, TRPML1 inh -4, gsp ag inconclusive, Menin-MLL FL inh 1.3, ClpP mod 0.0% and TRPML1 ag 0.7.
`Cc1ccc(CNc2oc(C)nc2C#N)cc1` gave gsp antagonist 4%, TRPML1 inh 3, gsp ag -53%[inhibitor], Menin-MLL FL inh -0.3, ClpP mod 0.0% and TRPML1 ag 2.8.
`Cc1cc2c(OCC(O)CN3CCCCC3)cccc2[nH]1` (stereo not drawn) gave gsp antagonist -9%, TRPML1 inh -23, gsp ag -80%[inhibitor], Menin-MLL FL inh -7.7 and TRPML1 ag 0.0.
`Cc1ccc(NC(=O)c2nc[nH]c2C(=O)N2CCC(C)CC2)cc1` gave gsp antagonist -9%, TRPML1 inh -17, gsp ag 7%, Menin-MLL FL inh 5.4, ClpP mod -0.4% and TRPML1 ag 1.0.
`Cc1c(C(=O)C(=O)NCCc2ccc(S(N)(=O)=O)cc2)c2ccccc2n1C` gave gsp antagonist 1%, TRPML1 inh 9, gsp ag 6%, Menin-MLL FL inh 4.5, ClpP mod -2.4% and TRPML1 ag -0.4.
`CCCCOc1ccc(C(=O)N/C(=C\c2cccc([N+](=O)[O-])c2)C(=O)OCc2ccco2)cc1` gave gsp antagonist -7%, TRPML1 inh 13, gsp ag -174%[inhibitor], Menin-MLL FL inh 0.8, ClpP mod -0.3% and TRPML1 ag 0.4.
O=C(c1ccc(Cl)cc1)c1cnc(Nc2ccccc2Cl)s1 was read as gsp antagonist -4%, TRPML1 inh 7, gsp ag inconclusive, Menin-MLL FL inh 1.0, ClpP mod 2.5% and TRPML1 ag -0.4.
COc1ccc(N2CCN(C(=S)NC(C)c3ccccc3)CC2)cc1 (stereo not drawn) was read as gsp antagonist 1%, TRPML1 inh -9, gsp ag -44%[inhibitor], Menin-MLL FL inh 4.6, ClpP mod 3.8% and TRPML1 ag 1.5.
`O=C(NCC(=O)N1CCN(S(=O)(=O)c2c(F)cccc2F)CC1)c1ccccc1F` gave gsp antagonist -9%, TRPML1 inh -5, gsp ag -5%, ClpP mod -0.6% and TRPML1 ag -0.2.
O=c1c2ccsc2ncn1Cc1ccc(Cl)cc1 was read as gsp antagonist 11%, TRPML1 inh -23, gsp ag 16%, Menin-MLL FL inh 3.1, ClpP mod 1.6% and TRPML1 ag -0.2.
O=C(Nc1nc(-c2cccs2)cs1)c1ccc([N+](=O)[O-])o1 was read as gsp antagonist 35µM*, TRPML1 inh 4, gsp ag 9%, ClpP mod 1.2% and TRPML1 ag 0.0.
O=C(COC(=O)CCS(=O)(=O)c1ccc(Cl)cc1)NCCc1ccccc1 was read as gsp antagonist 10%, TRPML1 inh -3, gsp ag -9%, Menin-MLL FL inh 2.1, ClpP mod 0.9% and TRPML1 ag 4.7.
For COc1ccc(CNc2nc(-c3ccc(OC)c(OC)c3)cc(C(F)(F)F)n2)cc1 the results were TRPML1 inh 38, ClpP mod 3.9% and TRPML1 ag 2.5.
CSc1ccccc1C(=O)NC1CCCN(Cc2ccccc2F)C1 (stereo not drawn) was read as gsp antagonist 0%, TRPML1 inh -3, gsp ag -70%[inhibitor], Menin-MLL FL inh -2.7 and TRPML1 ag -0.7.
CCOC(=O)CN(c1ccccc1)S(=O)(=O)c1ccc(F)cc1 was read as gsp antagonist 7%, TRPML1 inh 18, gsp ag -13%, Menin-MLL FL inh -0.5 and TRPML1 ag -0.3.

Compounds were not picked by outcome. Share with any hit: about 2.1%.
